Compound activity deposited in PubChem BioAssay by National Center for Advancing Translational Sciences (NCATS).
VDR inh: blocks the human vitamin D receptor; P11473; VDR-SRC2-3 peptide fluorescence polarization, 2 h; Potency, µM, inactives show max response, negative = inhibition, hits mostly inhibitors; actives 0.93% (n = 400,000); AID 504847; active means well fitted inhibition curve with a large enough effect; inconclusive means small, poorly fitted or top-dose-only effect, or another doubt; inactive means no such curve, though single readings can be large or run the other way; further: series mostly up to about 120 µM
Target sequence (P11473 whole entry, looked up): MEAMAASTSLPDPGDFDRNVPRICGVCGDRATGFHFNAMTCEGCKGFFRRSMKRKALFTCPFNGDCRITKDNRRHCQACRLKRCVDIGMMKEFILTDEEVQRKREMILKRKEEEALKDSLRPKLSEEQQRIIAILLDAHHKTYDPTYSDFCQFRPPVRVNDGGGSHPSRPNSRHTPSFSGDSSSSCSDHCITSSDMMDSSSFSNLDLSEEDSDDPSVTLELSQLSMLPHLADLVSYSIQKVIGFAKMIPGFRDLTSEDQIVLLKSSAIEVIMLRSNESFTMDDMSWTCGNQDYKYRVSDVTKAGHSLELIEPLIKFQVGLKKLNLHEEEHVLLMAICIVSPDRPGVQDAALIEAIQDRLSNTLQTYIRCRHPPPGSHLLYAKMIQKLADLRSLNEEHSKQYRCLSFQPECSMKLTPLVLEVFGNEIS
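Inhibition of the VDR/SRC2-3 peptide interaction is quantified by fluorescence polarization. Compounds (23 nl, pintool) incubate with the reagents for 2 hours at ambient room temperature.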
Numbers without * were called inactive; ? = inconclusive; & = joins results of further samples. On the % scale 0 is the no-effect control and ±100 the full control effect; potency means the concentration at half of the fitted maximal effect. Some of the compounds tested; rates above refer to the full screens.

Preview, two compounds:
SMILES	VDR inh
CC1CCCC(C)N1C(=O)CN1C(=O)NC2(CCOc3ccccc32)C1=O (centres undefined)	8.7%
O=C(O)Cn1cnc2c(OCc3ccccc3)ncnc21	-25.0%

The listing, repeating the preview:
SMILES	VDR inh
CC1CCCC(C)N1C(=O)CN1C(=O)NC2(CCOc3ccccc32)C1=O (centres undefined)	8.7%
O=C(O)Cn1cnc2c(OCc3ccccc3)ncnc21	-25.0%
O=C(c1ccco1)N1c2ccccc2Sc2ccccc21	1.5%
COc1ccc(S(=O)(=O)N(C)CC(=O)Nc2ccccc2SC)cc1	-25.6%
O=C(CN1CCN(c2ccc([N+](=O)[O-])cc2)CC1)c1ccccc1	-18.8%
C(#Cc1ccc2c(c1)COc1c3ccccc3nn1-2)c1ccccc1	-13.7%
CC1(C)SC2C(NC(=O)C(C(=O)O)c3ccccc3)C(=O)N2C1C(=O)O (centres undefined)	5.3%
O=C(CSc1nnc2ccccn12)Nc1ccc(N2CCOCC2)cc1	-3.6%
COc1cccc(/C=C/c2nc(C#N)c(NCCc3ccccc3)o2)c1	17.1%
CCOC(=O)c1c(C)[nH]c(C)c1S(=O)(=O)NCC(=O)NCc1ccc(C)cc1	14.3%
Cc1cc(C)c(N(CC(=O)NCc2ccccc2)C(=O)c2csnn2)c(C)c1	-0.9%
CC(=O)c1ccc(OCc2ccc(Oc3c(Cl)cccc3[N+](=O)[O-])cc2)cc1	-9.0%
Cc1ccc(C)c(Cn2c(=O)cc(C(F)(F)F)c3c(C)nn(C)c32)c1	-0.1%
CN(C(=O)CSc1nnc(-c2ccco2)o1)C1CCCCC1	7.1%
CC(C(=O)O/N=C(\N)c1ccccn1)c1ccc([N+](=O)[O-])cc1 (centres undefined)	-2.1%
O=C(NCC1COc2ccccc2O1)c1cccc(S(=O)(=O)NCc2ccccc2)c1 (centres undefined)	13.4%
O=C(CSc1nnc(-c2ccccc2)o1)c1ccc2c(c1)OCCO2	0.5%
COc1ccccc1CNc1ncnc2ccc(-c3ccc(N(C)C)cc3)cc12	?
CCn1c(CNC(=O)c2ccc(OC)cc2)nnc1SCC(=O)Nc1ccccc1	-4.7%
O=c1cnnc(N/N=C/c2ccccn2)[nH]1	?

5 entries picked at random from those above:
SMILES	VDR inh
O=C(c1ccco1)N1c2ccccc2Sc2ccccc21	1.5%
CN(C(=O)CSc1nnc(-c2ccco2)o1)C1CCCCC1	7.1%
O=C(NCC1COc2ccccc2O1)c1cccc(S(=O)(=O)NCc2ccccc2)c1 (centres undefined)	13.4%
CC(=O)c1ccc(OCc2ccc(Oc3c(Cl)cccc3[N+](=O)[O-])cc2)cc1	-9.0%
Cc1ccc(C)c(Cn2c(=O)cc(C(F)(F)F)c3c(C)nn(C)c32)c1	-0.1%

Further results
SMILES	VDR inh
c1ccc2c(c1)Sc1ccccc1-n1cnnc1-2	13.9%
COc1cccc(-n2cc(C(=O)Nc3ccccc3C(N)=O)c3ccccc3c2=O)c1	-6.3%
COc1cc(CN2CCC(C(=O)NCCC(C)C)CC2)ccc1OCc1ccccc1	-9.1%
O=[N+]([O-])c1cccnc1NCCNc1ncc(C(F)(F)F)cc1Cl	0.8%
Nc1nnn(CC(=O)N/N=C/c2cccc(Cl)c2)n1	-10.6%
O=C(CCCN1C(=O)c2cccnc2Oc2ccc(Cl)cc21)NCc1ccccc1F	10.9%
O=C1CCN(CCc2ccccc2)CCN1[C@H](CSc1ccccc1)c1ccccc1	-1.8%
O=C(CBr)c1ccc([N+](=O)[O-])c(CS(=O)(=O)c2ccc(Cl)cc2)c1	35.5µM*
Cc1nc(-c2ccccc2)sc1C1(C)CC(c2ccc(OC(F)(F)F)cc2)=NO1 (centres undefined)	-0.3%
Cc1cc(C(=O)Nc2ccccc2C)c2ccccc2n1	5.0%
C/C(=N\Nc1ccc(S(=O)(=O)Nc2ccc(Cl)cc2)cc1[N+](=O)[O-])c1ccc(N2CCOCC2)cc1	-8.2%
CCOCc1nnc(NC(=O)c2ccc(OC)cc2)s1	25.0%
CC(=O)N1CCOc2cc(S(=O)(=O)NCc3ccc(C)cc3)c(Cl)cc21	1.3%
COc1ccc(C2=Nc3ccccc3C2(O)CCN2C(=O)c3ccccc3C2=O)cc1 (centres undefined)	-7.1%
Cc1noc(C)c1S(=O)(=O)Nc1ccc(C(=O)NC2CCCCC2)cc1	9.2%
COC(=O)c1ccc(CN2CCCC(C(=O)c3ccccc3OC)C2)cc1 (centres undefined)	-27.0%
CCCCc1nnc(NC(=O)c2ccc(N3CCCC3=O)cc2)s1	-15.1%
Cc1ccc(-c2[nH]n3c(=O)c4c(nc3c2C)CCCC4)cc1	-12.6%
Cn1c(NC(=O)/C=C\c2ccccc2)cc(=O)n(C)c1=O	-21.8%
COc1ccc(C(=O)c2ccc(C)cc2)c(O)c1	-2.2%

VDR inh, hit marks shown above
SMILES	VDR inh
O=C(CBr)c1ccc([N+](=O)[O-])c(CS(=O)(=O)c2ccc(Cl)cc2)c1	35.5µM*

Other compounds follow:
SMILES	VDR inh
COCC1CCCN(C(=O)c2cc(COc3cncc(Cl)c3)on2)C1 (centres undefined)	6.6%
CC(=O)[C@H]1[C@H](C#N)CC2C3CC=C4C[C@@H](O)CCC4(C)C3CCC21C (some centres undefined)	1.4%
COc1ccc(NC(=O)c2ccco2)cc1NC(=O)COc1ccccc1[N+](=O)[O-]	-7.5%
CC[N+](C)(CC)CC(=O)Nc1c(C)cccc1C	-3.9%
COc1ccc(CNC(=O)COC(=O)C2=Cc3ccccc3OC2)cc1	?
COc1ccc(NC(=O)C2CCCN(C(=O)Nc3cccc(OC)c3)C2)cc1 (centres undefined)	3.0%
Nc1nc2c(ncn2-c2ccccc2)c(=O)[nH]1	-10.7%
c1ccc2c(c1)nnn2CNc1nccs1	10.9%
CCc1n[nH]c(=S)n1/N=C/c1ccccn1	-10.5%
O=C1c2ccccc2C(O)(c2ncc[nH]2)N1C1CCCCC1 (centres undefined)	-4.4%
C/C(=N\Nc1ccc([N+](=O)[O-])cc1)c1cc2ccccc2o1	-9.7%
CN(Cc1ccccc1)C(=O)C1CCN(S(=O)(=O)c2ccc3nc4c(c(C(=O)O)c3c2)CCCC4)CC1	8.0%&-10.2%
CCCCCCC(=O)N(O)C1CC(=O)N(c2ccc(F)cc2)C1=O (centres undefined)	39.8µM*
O=C(NCCc1c[nH]c2ccccc12)C(=O)NCC1OCCN1S(=O)(=O)c1cc(F)ccc1F (centres undefined)	-9.7%
O=C(CSc1nc2ccccc2s1)c1ccc(O)cc1O	17.3%
O=C(CSc1ccccc1)Nc1ccc(C(=O)Nc2cccc(O)c2)cc1	-16.3%
CCN(CC)C(=O)C(=O)N/N=C/c1ccc(Cl)cc1Cl	-3.0%
Cc1ccc(NC(=O)c2ccncc2)cc1S(=O)(=O)N(C)C	-4.8%
O=C(COc1ccc2c(-c3ccccc3)cc(=O)oc2c1)NC1CCS(=O)(=O)C1 (centres undefined)	-5.1%
CCCCCCN=C(C)C1=C(O)C(C(=O)OC)C(C)(C)CC1=O (centres undefined)	1.0%
Cc1cc(C)cc(N(C(=O)c2csnn2)C(C(=O)NC(C)(C)C)c2ccccn2)c1 (centres undefined)	-8.1%
O=C(Nc1cccc(Br)c1)C1CC(=O)N(C2CCCC2)C1 (centres undefined)	-4.1%
O=C(Nc1ccc2c(c1)OCCO2)c1ccc(Br)c(S(=O)(=O)N2CCOCC2)c1	21.0%
Cc1nn(C)c2c1c(C(F)(F)F)cc(=O)n2CC(=O)Nc1ccc(F)cc1F	15.3%
Cc1c(Cl)cccc1NC(=O)CSC(N)=O	?
CC(C)N=C1CC(C)(C)CC(=O)/C1=C(/O)CCCN1C(=O)c2ccccc2C1=O	1.8%
Cc1ccc(O)c(NC(=O)Cc2ccc3ccccc3c2)c1	-4.0%
O=C1c2ccccc2C(=O)N1CCC(=O)N1CCc2ccccc21	17.6%
NC(=S)c1ncc(C(F)(F)F)cc1Cl	13.6%
COc1ccc(-n2c(=O)c3ccccc3n(CC(=O)NCC3CCCO3)c2=O)cc1 (centres undefined)	16.7%
Cc1ccc(C(=O)N2CC(=O)Nc3ccccc32)o1	-14.1%
COc1ccc(C(=S)N2CCCC2)cc1OC	2.3%
Cn1c(CO)nc2cc(N)ccc21	2.9%
CC(C)c1ccc(NS(=O)(=O)c2ccc(N3C(=O)CCC3=O)cc2)cc1	-0.5%
CCOC(=O)C1CCN(S(=O)(=O)c2ccc3[nH]c(=O)c(=O)[nH]c3c2)CC1	-1.6%
N#Cc1c(C(F)(F)F)cc(-c2ccccc2)n(N)c1=O	-0.7%
CC(C)CN1CC(=O)N2C(c3ccccc3)c3[nH]c4ccccc4c3C[C@H]2C1=O (some centres undefined)	0.8%
C=CCNC(=O)CSc1nc2scc(-c3ccco3)c2c(=O)n1CC=C	21.0%
O=C(O)Cc1sc(-c2ccc(Cl)cc2)nc1-c1ccccc1	?
CCOC(=O)C1=C(c2ccccc2)Nc2ncnn2C1c1ccc(Cl)cc1 (centres undefined)	4.7%
Cc1cccc(-n2nc3c(c2NC(=O)C(C)C)CS(=O)(=O)C3)c1C	-4.1%
O=C(N[C@H]1C/C=C\C[C@H](CC(=O)N(CCO)Cc2ccccc2)C(=O)N[C@H](Cc2c[nH]c3ccccc23)COC1=O)OCC1c2ccccc2-c2ccccc21	1.1%
CC1CCCCC12NC(=O)N(CC(=O)Nc1sc3c(c1C(N)=O)CCC3)C2=O (centres undefined)	-2.2%
CCN(C(=O)COC(=O)CCOc1cccc(C)c1)c1c(N)n(Cc2ccccc2)c(=O)[nH]c1=O	-14.2%
O=C(CN1C(=O)c2ccccc2C1=O)NCc1ccc(N2CCOCC2)cc1	-15.5%
CCC1(C)COC(c2ccc3c(c2)OCO3)OC1 (centres undefined)	-18.1%
CN(CCc1ccccc1)C(=O)c1ccc(NC(=O)Cc2ccc([N+](=O)[O-])cc2)cc1	6.0%
CCOc1ccc(OCC)c(NC(=O)CSc2nnc(C3CC3)n2CC)c1	1.4%
O=C(NCCOc1ccccc1)C1=CC=CN2CCS(=O)(=O)N=C12	-14.0%
c1ccc(CNc2ncnc3sc4c(c23)CCC4)nc1	-0.3%
COc1cccc(CC(=O)Nc2ccc(S(=O)(=O)Nc3nccs3)cc2)c1	0.6%
COc1cc(/C=N\NC(=O)c2ccc(-c3ccccc3)cc2)cc(OC)c1OC(C)=O	18.8%
O=C(Nc1ccnn1C1CCN(C2CCCCC2)CC1)c1ccccc1	1.8%
CC1CN(C(=O)CCc2cc(C(C)(C)C)c(O)c(C(C)(C)C)c2)CC(C)O1 (centres undefined)	12.8%
O=C(NC1CCCCC1)C(c1ccc(F)cc1)N(Cc1ccco1)C(=O)CN1C(=O)c2ccccc2S1(=O)=O (centres undefined)	-14.4%
O=C(O)c1ccccc1NS(=O)(=O)c1ccc(NN=Cc2ccc(F)cc2)c([N+](=O)[O-])c1	-24.5%
N/C(Cc1cccc2ccccc12)=N\OC(=O)Cc1cccs1	7.1%
CC(=O)C(Sc1nccc(-c2cccs2)n1)C(C)=O	-1.3%
Cc1ccc(NC(=O)C(C)Sc2nnc(-c3cccnc3)n2-c2ccccc2)cc1 (centres undefined)	7.1%
Cc1ccc2c(c1)sc(C)[n+]2CCCS(=O)(=O)[O-]	28.2µM*

Brought forward from above: 6 compounds, followed by the next part.
SMILES	VDR inh
O=C(NC1CCCCC1)C(c1ccc(F)cc1)N(Cc1ccco1)C(=O)CN1C(=O)c2ccccc2S1(=O)=O (centres undefined)	-14.4%
O=C(O)c1ccccc1NS(=O)(=O)c1ccc(NN=Cc2ccc(F)cc2)c([N+](=O)[O-])c1	-24.5%
N/C(Cc1cccc2ccccc12)=N\OC(=O)Cc1cccs1	7.1%
CC(=O)C(Sc1nccc(-c2cccs2)n1)C(C)=O	-1.3%
Cc1ccc(NC(=O)C(C)Sc2nnc(-c3cccnc3)n2-c2ccccc2)cc1 (centres undefined)	7.1%
Cc1ccc2c(c1)sc(C)[n+]2CCCS(=O)(=O)[O-]	28.2µM*
CCCn1c(SCC(=O)N2c3ccc(F)cc3CCC2C)nnc1-c1ccccn1 (centres undefined)	?
Cc1ccc(NC(=O)CSc2ccc(C(N)=O)cc2[N+](=O)[O-])cc1	-19.2%
CSc1ccccc1NC(=O)c1cc(C2CC2)on1	?
O=C(NC1CCCC1)c1cc(-c2ccccc2)nc2ccccc12	-1.3%
O=C(Nc1ccc2c(c1)OC1(CCCC1)O2)C1CC1	-10.8%
CCOc1ccc(CNC(=O)C2CC(=O)N(C3CCCC3)C2)cc1OC (centres undefined)	-3.9%
CC1(C)CC2(CC(c3ccccc3F)c3ccc(O)c(O)c3O2)NC(=S)N1 (centres undefined)	21.8%
Cc1ccc(C)c2[nH]c(=O)c(CCNC(=O)c3ccc(S(=O)(=O)N4CCCC4)cc3)cc12	4.8%
CC1(C)CC(=O)C(C(O)c2ccccc2)C(C)(C)N1 (centres undefined)	27.4%
COc1ccc2cc3cc(C(=O)NC(C)C)oc3nc2c1	-20.2%
CCSc1nn(CC(=O)Nc2ccc(C(=O)OC)cc2)c(N)c1S(=O)(=O)c1ccc(C)cc1	7.9%
Cc1ccc(CN2CCN(/N=C/c3cc(Br)ccc3O)CC2)cc1	6.8%
CC1(C(=O)NNC(=O)C2CCCCC2)CC1(Cl)Cl (centres undefined)	-16.8%
Cc1ccc(C)c(-n2c(-c3csc(C)c3)n[nH]c2=S)c1	-9.9%
O=C(Nc1ccc(-c2cn3ccsc3n2)cc1)c1ccc(F)c(S(=O)(=O)N2CCOCC2)c1	8.8%
Cc1onc(-c2c(F)cccc2Cl)c1C(=O)Nc1nc2c(s1)CCCC2	0.4%
COC(=O)c1cn(C(=O)c2ccc(Cl)cc2)c2ccccc12	-0.2%
CCOc1ccc(-c2nnc3n2N=C(c2ccc(OC)cc2)CS3)cc1	-10.1%
CC(=O)c1ccc(C(=O)NC2CC(C)(C)Cc3c2cnn3-c2ccccc2)cc1 (centres undefined)	-6.5%
Cc1ccc2[nH]c(=O)c(CN(Cc3cccnc3)C(=S)NCCCN(C)C)cc2c1	4.0%
COc1ccc(CNC(=O)C(c2ccc(C)o2)N(Cc2cccs2)C(=O)Cc2cccs2)cc1 (centres undefined)	-6.8%
